Assay outcomes from PubChem.
TSHR agonist: agonists of human thyroid stimulating hormone receptor | P16473 | HEK293-CNG-TSHR cells (CNG channel as cAMP sensor), membrane potential dye, cAMP | Potency, µM (top dose mostly 57.1 µM), for inactives: top-dose activation, hits mostly activators | actives 0.48% (n = 73,000) | AID 926; active = well fitted activation curve of enough size with the parental cells flat; inconclusive = any curve in the parental cells; inactive = parental cells flat and receptor cells flat or falling; further: potency means the concentration at half of the fitted maximal effect; % of control where 0% means no effect; weak receptor curves with flat parental cells got no call and are not listed
Target sequence (P16473 whole entry, looked up): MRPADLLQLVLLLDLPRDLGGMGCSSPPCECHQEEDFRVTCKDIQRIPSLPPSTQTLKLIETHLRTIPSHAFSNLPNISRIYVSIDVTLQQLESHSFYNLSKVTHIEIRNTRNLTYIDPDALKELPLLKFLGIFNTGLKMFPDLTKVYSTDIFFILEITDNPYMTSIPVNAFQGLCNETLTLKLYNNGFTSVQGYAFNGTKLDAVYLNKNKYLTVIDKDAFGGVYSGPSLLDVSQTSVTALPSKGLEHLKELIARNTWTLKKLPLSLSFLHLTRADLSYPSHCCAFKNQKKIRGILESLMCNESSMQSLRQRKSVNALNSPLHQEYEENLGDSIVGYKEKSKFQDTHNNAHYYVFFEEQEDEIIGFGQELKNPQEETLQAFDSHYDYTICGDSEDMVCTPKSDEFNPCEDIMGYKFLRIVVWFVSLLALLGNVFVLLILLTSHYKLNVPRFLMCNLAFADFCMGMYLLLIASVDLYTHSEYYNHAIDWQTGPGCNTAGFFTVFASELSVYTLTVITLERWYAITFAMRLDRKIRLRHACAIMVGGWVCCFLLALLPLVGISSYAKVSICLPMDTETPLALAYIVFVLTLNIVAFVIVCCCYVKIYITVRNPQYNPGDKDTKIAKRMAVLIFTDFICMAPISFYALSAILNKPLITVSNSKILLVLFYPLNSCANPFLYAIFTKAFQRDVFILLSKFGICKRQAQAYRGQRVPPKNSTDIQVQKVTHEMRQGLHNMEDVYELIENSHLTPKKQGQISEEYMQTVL
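cAMP rise detected as CNG-channel membrane depolarization by fluorescent dye (emission 590 nm), 30 min after compound, following 60 min dye loading containing 100 uM RO 20-1724 at room temperature. Cells: TSHR/CNG HEK 293, with parental CNG HEK 293 as control.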
A488 fluor: compound fluoresces in the A488 spectral region; actives 0.1% (n = 59,000); max dye equivalency, M; compound autofluorescence, A488 spectral region, dye equivalency; stronger effect = higher value; active = above 10 nM dye equivalent; inconclusive = 1 to 10 nM; inactive = 1 nM or less; about half of its hits are not listed in these tables;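 further: highest value over a series up to 38 µM; compound alone in buffer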
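Intrinsic compound fluorescence is measured in 100 mM Tris buffer at pH 8.0 following 15 min incubation at room temperature. Intensities at 480 nm excitation/540 nm emission are calibrated to an on-plate A488 concentration series, giving dye-equivalent concentrations.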
Resorufin fluor: resorufin region autofluorescence; Compound fluorescence, resorufin region 547/598 nm, buffer; stronger effect = higher value; max dye-equivalent concentration, M; actives 0.04% (n = 59,000); active = above 10 nM dye equivalent; inconclusive = 1 to 10 nM; inactive = 1 nM or less; a few of its hits are not listed in these tables; further: highest value over a series up to 38 µM
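Compounds in 100 mM Tris buffer, pH 8.0, incubated 15 min at room temperature, then read with 547 nm excitation and 598 nm emission filters. Fluorescence was converted to dye-equivalent concentration using an on-plate six-point resorufin standard curve.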
A647 fluor: compound autofluorescence in A647 spectral region. Compound fluorescence, A647 channel (570/671 nm), Tris buffer. max dye-equivalent concentration, M. 59,000 tested, under 10 active. AID 592; active means above 1 µM dye equivalent; inconclusive means 0.1 to 1 µM; inactive means 0.1 µM or less;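 further: values scaled relative to a standard on each plate; highest value over a series up to 38 µM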
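Compounds pinned into 100 mM Tris pH 8.0, 15 min at room temperature, then read with 570 nm excitation/671 nm emission filters. Fluorescence normalized to an on-plate six-point Alexa 647 standard curve, giving dye-equivalent concentration per compound concentration.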
AID923: qHTS Assay for Allosteric/Competitive Inhibitors of Caspase-1: Spectroscopic Profiling in AFC Spectral Region | AID 923, 2007 | compound fluorescence, AFC spectral region (405/520 nm); almost no hit is shown here | actives 1.1% (n = 75,000) | Potency, µM (series often up to 57.5 µM), for the others: top-dose fluorescence increase, actives largely listed as activators; active means well fitted activation curve with a large enough effect; inconclusive means small, poorly fitted or top-dose-only effect;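 further: potency means the concentration at half of the fitted maximal effect; 0% is about no effect; scaled to a free AFC standard on each plate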
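Titrations up to 57 uM read every 20 sec for 3 min (405/520 nm) with 50 nM caspase 1 and 5 uM Ac-WEHD-AFC, pH 7.5 HEPES buffer. Fluorescence-vs-time intercept gave baseline, scaled against on-plate AFC standard.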
* = called active by the depositor; i = inactive; ? = inconclusive; nt = not tested or not shown; & = joins results of further samples; [ ] = another dose, or the depositor's remark.

Sequence of screens – TSHR agonist	A488 fluor	Resorufin fluor	A647 fluor	AID923
> c1cc(CNc2ccc3c(c2)OCO3)ccn1
 : 3%	i	i	1e-09	4.9%
> CC(=O)c1oc2ccccc2c1NC(=O)COC(=O)c1ccc(-n2nc(C)cc2C)cc1
 : 9%	i	i	3.7e-08	1.6%
> COC(=O)c1cc(OC)c(OC)c(OC)c1N
 : 12%	i	i	5.9e-09	0.4%
> COCC(C)NC(=O)c1noc2c1CCc1cc(OC)ccc1-2 (stereo not given)
 : 2%	i	i	1.4e-08	-2.1%
> Cc1cc(C)c2c(N)c(C(=O)N3CCCCCC3)sc2n1
 : -1%	i	i	2.8e-09	2.8%
> COC(=O)[C@@H]1C[C@H]1[C@@H](NC(=O)Oc1ccc(F)cc1)c1ccccc1
 : ?	nt	nt	nt	-1.1%
> COc1ccc(C(CNC(=O)c2ccc(-n3cnnn3)cc2)N2CCOCC2)cc1 (stereo not given)
 : 10%	i	i	1.4e-09	5.3%
> CCOCC(=O)Nc1nc2ccc(C)cc2s1
 : 1%	i	i	4.4e-09	-0.3%
> Cn1nnnc1SCC(=O)Nc1nc(-c2ccccc2)c(-c2ccccc2)o1
 : -2%	i	i	4.3e-08	0.4%
> Cn1c(=O)n(CCc2ccccc2)c(=O)c2c1nc1n2CCN1Cc1ccco1
 : -8%	i	i	2e-08	0.8%
> COc1ccccc1C1C(C(=O)c2cc3ccccc3o2)=C(O)C(=O)N1CCN(C)C (stereo not given)
 : nt	i	i	1.5e-08	3.7%
> CCOc1ccc(-c2ncncc2-c2ccc(OC)cc2)c(O)c1
 : 10%	i	i	1e-09	-0.6%
> CCCn1nnnc1SCC(=O)NCc1cccs1
 : 6%	i	i	5e-08	-0.1%
> CC(=O)N(c1ccc2oc(=O)sc2c1)S(=O)(=O)c1ccccc1
 : -6%	i	i	2.9e-08	-2.7%
> O=C1OCCC=C1[C@@H](O)CCc1ccccc1
 : 5%[11.4 µM]	nt	nt	nt	0.8%[11.5 µM]
> CC(C)(C)NC[C@H](O)COc1cccc2[nH]c(=O)[nH]c12
 : -3%&3%	i	i	1e-09	-2.2%&-0.5%
> Cc1c(N(C(=O)Nc2ccccc2)C2=NCC(C)S2)c(=O)n(-c2ccccc2)n1C (stereo not given)
 : 4%	i	i	2.1e-09	-2.0%
> COC(=O)c1ccc(C2CC(=O)Nc3cc(OC)c(OC)cc32)cc1 (stereo not given)
 : 9%	i	i	1e-09	0.4%
> CCOC(=O)COc1nc(N(C)C)nc(N(C)C)n1
 : nt	i	i	8.8e-08	nt
> Cc1cc(C)c(NC2=CC(=O)CC(C)(C)C2)c(C#N)c1
 : ?	i	i	4e-08	1.6%
> O=C(CSCc1ccccc1)Nc1ccc2c(c1)OCO2
 : 20%	i	i	7.1e-09	-0.9%
> Cn1c(SCC(=O)N(C2CCCCC2)C2CCCCC2)nnc1-c1cccs1
 : 18%	i	i	3.7e-08	-1.8%
> O=C(CSc1nnc(C2COc3ccccc3O2)o1)N1CCOCC1 (stereo not given)
 : -8%	i	i	4.5e-08	0.2%
> COCCCn1nnnc1SCC(=O)Nc1nc(C)c(C)s1
 : 2%	i	i	2.1e-08	0.4%
> CC1=C(C(=O)OC(C)C)C(c2cccs2)C2=C(CCCC2=O)N1 (stereo not given)
 : ?	nt	nt	nt	7.2%
> O=C(NCc1ccccn1)c1cc2ccccn2n1
 : -1%	nt	nt	nt	3.6%
> CC(C)c1nc(N2CCCC2)c(C#N)c2c1CCCC2
 : 4%	i	i	3.3e-09	0.2%
> NC(=O)CC(O)c1cccc(Cl)c1 (stereo not given)
 : 2%	i	i	4e-08	-0.9%
> COc1ccc(S(=O)(=O)N2CCCN(CC(=O)Nc3cc(NC(C)=O)ccc3OC)CC2)cc1
 : 0%	i	i	4.1e-08	0.8%
> Cc1nc2nc[nH]n2c(=O)c1NC(=O)c1c(-c2ccccc2Cl)noc1C
 : 15%	i	i	5.2e-08	1.6%
> O=C1Nc2cccnc2Sc2ccccc21
 : -5%[11.4 µM]	i	i	3.1e-08	-1.4%
> COc1cc(OC)nc(NC(=O)COC(=O)C2CCCCC2)n1
 : 5%	i	i	3.4e-09	-0.3%
> CCOC(=O)C1=C(C)NC(=O)NC1/C(C)=C/c1ccccc1 (stereo not given)
 : 6%	nt	nt	nt	-0.3%
> COC(=O)[C@@]1(Cc2ccccc2)[C@H]2c3cc(C(=O)N(C)C)n(CCO)c3C[C@H]2CN1C(=O)c1ccccc1
 : 4%	nt	nt	nt	1.9%
> COc1ccc(Cl)cc1S(=O)(=O)N1CCN(C)CC1
 : -7%	nt	nt	nt	-0.4%
> N#CCCSCc1ccc(C(=O)O)o1
 : 8%	i	i	1e-09	0.3%
> Cc1csc(SCC(=O)N2CCCC2)n1
 : -1%	i	i	1e-09	-0.6%
> O=C1C2CCCN2C(c2ccccc2)N1c1ccc(Cl)cc1 (stereo not given)
 : 6%	i	i	3.1e-09	-0.5%
> COc1ccc(-c2noc(CCC(=O)Nc3cc(Cl)c(OC)cc3OC)n2)cc1
 : 1%	i	i	2.2e-09	0.8%
> FC(F)(F)c1nc(SCc2ccc(Cl)cc2)n[nH]1
 : 1%[11.4 µM]	i	i	4.5e-09	0.8%[11.5 µM]
> O=C(CN1C(=O)c2ccccc2S1(=O)=O)N1CCN(c2ccccc2F)CC1
 : -5%	i	i	2.3e-08	0.1%
> COC(=O)C1CCN(C(=O)NC2CCCCC2)CC1
 : 2%	i	i	2e-08	-0.7%
> O=C(Nc1ccc2c(c1)OCCO2)c1c(F)cccc1F
 : 2%	i	i	1e-09	-1.1%
> COc1ccc(S(=O)(=O)Nc2cc(OC)c(NC(=O)c3ccco3)cc2OC)cc1
 : -18%	i	i	7.3e-08	0.6%
> O=C(COc1cc(Cl)ccc1Cl)Nc1nnc(CC(=O)N2CCOCC2)s1
 : -1%	i	i	1.1e-09	0.5%
> CCn1c(SCC(=O)N2CCN(c3ccc(F)cc3)CC2)nnc1-c1ccncc1
 : 2%	i	i	1e-09	-1.7%
> COc1ccc2cc([C@H](C)C(=O)O)ccc2c1
 : ?	i	i	1e-09&1e-09&1e-09&2.4e-09	2.7%[25.7 µM]
> COC(=O)CSc1nc2c(c(=O)n(C)c(=O)n2C)n1CCCc1ccccc1
 : 16%	i	i	1e-08	-0.4%
> COc1ccc(-n2c(=O)cc(N3CCN(c4ccccc4F)CC3)[nH]c2=O)cc1
 : 2%	i	i	1e-09	-0.8%
> CC(=O)n1nc(-c2cccnc2)nc1N
 : -1%	i	i	4.2e-08	-1.7%
> CCN(CC)S(=O)(=O)N1CCC(C(=O)NC2CCCc3ccccc32)CC1 (stereo not given)
 : 3%	i	i	1e-09	-2.4%
> O=C(Nc1ccc(NC(=O)c2ccco2)nc1)c1ccccn1
 : 13%	i	i	1e-09	1.3%
> COc1ccc(Nc2nc(N)nc(CSc3n[nH]c(-c4ccccc4)n3)n2)cc1
 : -3%	i	i	2.3e-09	-4.4%
> CCCCOC(=O)C1=C(C)Nc2ncnn2C1c1cccc(OC)c1OC (stereo not given)
 : ?	i	i	1e-09	-0.9%
> Cn1c(Cl)cnc1C(O)c1ccccc1 (stereo not given)
 : -5%	i	i	4.3e-09	-2.6%
> CC1Cc2ccccc2N1C(=O)CN1C(=O)CN(C)C(=O)c2ccccc21 (stereo not given)
 : -3%	i	i	1e-09	0.3%
> CCOC(=O)N1CCN(S(=O)(=O)c2ccc(C(=O)Nc3ccc(F)cc3F)cc2)CC1
 : 18%[11.4 µM]	i	i	2.9e-08	-0.8%
> COCCn1c(C)cc(C(=O)COC(=O)c2ccc3ncsc3c2)c1C
 : 6%	i	i	3.3e-08	0.2%
> O=C(c1ccc(C(=O)N2CCOCC2)nc1)N1CCOCC1
 : 1%	i	i	7.6e-09	0.3%
> CCOC(=O)c1cc2occc2n1CCCN1C(=O)c2ccccc2C1=O
 : nt	i	i	3e-09	1.5%

Next entries follow:
Sequence of screens – TSHR agonist	A488 fluor	Resorufin fluor	A647 fluor	AID923
> CC1(c2ccccc2)NC(=O)N(CC(=O)N2CCOCC2)C1=O (stereo not given)
 : -1%	i	i	1e-09	0.4%
> CC12CN(C(=O)c3ccco3)CC(c3ccccc3)(CN(C(=O)c3ccco3)C1)C2=O
 : nt	i	i	1.6e-09	-1.5%
> Cc1noc(COc2ccccc2OCC(N)=O)c1Cl
 : -1%	i	i	6.4e-09	13%
> COC(=O)c1cn(C)c2ccc(S(=O)(=O)N3CC(C)CC(C)C3)cc2c1=O (stereo not given)
 : -2%	i	i	8.2e-09	-0.5%
> Cc1ccccc1-n1c(=O)cc(N2CCCCCC2)[nH]c1=O
 : -2%	nt	nt	nt	1.2%
> N#Cc1ccc(-c2ccco2)nc1SCc1ccccc1
 : 0%	i	i	3.4e-09	1.0%
> COc1ccc(OC)c(C2CC(=O)N3CN(c4ccc(C)c(Cl)c4)CSC3=C2C#N)c1 (stereo not given)
 : -4%	nt	nt	nt	1.1%
> O=C(c1ccco1)N1CCCC(c2nc(-c3ccc(S(=O)(=O)NCc4ccccc4)cc3)no2)C1 (stereo not given)
 : ?	i	i	1e-09	0.0%
> CCCCCn1c(CN2CCN(Cc3ccccc3)CC2)nc2c1c(=O)[nH]c(=O)n2C
 : 7%	i	i	1e-09	-0.5%
> Cc1nc(NC2=NCN(Cc3cccnc3)CN2)nc2ccccc12
 : -3%	i	i	2.5e-09	0.6%
> Cn1cccc1C(=O)N1CCC2(CCN(Cc3nccs3)CC2)CC1
 : -6%	i	i	3.1e-08	1.7%
> O=C(CCN1C(=O)c2ccccc2C1=O)N1CCN(c2ccccn2)CC1
 : 6%	i	i	1e-09	5.6%
> O=C(OCCN(C1=NS(=O)(=O)c2ccccc21)c1ccc(Cl)cc1)c1ccco1
 : ?	nt	nt	nt	3.8%
> COCCCn1c(-c2ccccc2Cl)n[nH]c1=S
 : -1%	i	i	4.2e-08	0.3%
> CC(C)(C)n1ncc2c(=O)n(CC(=O)OCc3ccccc3)cnc21
 : 20%	i	i	1.5e-08	-0.2%

Single records, as listed above:
Listed for Cc1nc(NC2=NCN(Cc3cccnc3)CN2)nc2ccccc12 : TSHR agonist: -3%; A488 fluor: i; Resorufin fluor: i; A647 fluor: 2.5e-09; AID923: 0.6%
Listed for CCCCCn1c(CN2CCN(Cc3ccccc3)CC2)nc2c1c(=O)[nH]c(=O)n2C : TSHR agonist: 7%; A488 fluor: i; Resorufin fluor: i; A647 fluor: 1e-09; AID923: -0.5%

Carrying on.
Sequence of screens – TSHR agonist	A488 fluor	Resorufin fluor	A647 fluor	AID923
> CCC(=O)Nc1ccc(NC(=O)c2ccco2)c(OC)c1
 : 6%	i	i	8.7e-09	-2.3%
> O=S(=O)(Cc1ccccc1)N1CCn2c(nc3ccccc32)C1
 : 4%	nt	nt	nt	0.6%
> CCC1(C)Cc2c(sc3c2c2ncnn2c2nnc(SCC(=O)NCc4ccco4)n32)CO1 (stereo not given)
 : 16%	i	i	8.4e-09	-1.2%
> CCOC(=O)c1nnn(CC(=O)Nc2cc(Cl)ccc2C)c1C(=O)OCC
 : -7%	i	i	1e-09	-0.5%
> CCC(=O)N/C=C/n1cnc2cc(C(F)(F)F)ccc21
 : 3%	i	i	1.1e-09	-1.2%
> COc1cc(C2N3CC4(C)CN2CC(C)(C3)C4)ccc1O (stereo not given)
 : 6%	i	i	5.2e-09	-0.4%
> O=c1cnc2cnc(N3CCOCC3)nc2n1Cc1cccs1
 : ?	i	i	2.7e-08	11%
> CC[C@H](C)[C@H](NS(=O)(=O)c1ccc(C)cc1)C(=O)N1CCC(C(=O)N[C@@H](C)C(=O)O)CC1
 : 3%	i	i	3.2e-09	0.1%
> Cc1ccc(-n2c(=O)[nH]cc(C(=O)Nc3ccc4c(c3)OCO4)c2=O)cc1C
 : 3%	nt	nt	nt	-0.3%

Only part of the results is shown; rates above refer to the full screens.
